Bioassay records deposited in PubChem by National Center for Advancing Translational Sciences (NCATS).
Sfp PPTase inh: qHTS Assay for Inhibitors of Bacillus subtilis Sfp phosphopantetheinyl transferase (PPTase); Potency, µM, inactives show max response, negative = inhibition, most hits filed as inhibitors; Biochemical Sfp PPTase activity, qHTS; 4'-phosphopantetheinyl transferase ffp (Bacillus subtilis), Q9F4F7; 310,000 tested, 3.5% active; active = well fitted inhibition curve with a large enough effect; inconclusive = small, poorly fitted or top-dose-only effect, or another doubt; inactive = no such curve, though single readings can be large or run the other way;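 note: the enzyme is Sfp with the accession as filed and its product quenches rhodamine fluorescence; potency is the fitted concentration of half-maximal effect; 0% = enzyme reaction without inhibitor and -100% = no enzyme wells; top concentration of the series not given in the record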
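Fluorescence-quenching assay: 15 nM Sfp-PPTase preincubated 15 min at room temperature with compound, then 5 uM rhodamine-CoA and 12.5 uM BHQ-2-labelled YbbR peptide added. Fluorescence (ex 525/em 598 nm) read at start and after 30 min; difference gives rate.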
ClpP mod: qHTS Assay for Activators of ClpP; ATP-dependent Clp protease proteolytic subunit (Bacillus subtilis (strain 168)), P80244; purified B. subtilis ClpP, FRET peptide cleavage, 20 min; Potency, µM (series often up to 57.5 µM), for the others: at the highest dose activity change, negative = active; 340,000 tested, 1.9% active; active = well fitted falling curve with a large enough effect; inconclusive = small, poorly fitted or top-dose-only effect; inactive = no such curve, though single readings can be large or run the other way; note: potency is the fitted concentration of half-maximal effect; the source files actives as falling curves though it sought activators and does not explain the sign; nearly all actives have a fitted effect of over 65% in size; many hits overshoot -100%
Target sequence (P80244 whole entry, looked up): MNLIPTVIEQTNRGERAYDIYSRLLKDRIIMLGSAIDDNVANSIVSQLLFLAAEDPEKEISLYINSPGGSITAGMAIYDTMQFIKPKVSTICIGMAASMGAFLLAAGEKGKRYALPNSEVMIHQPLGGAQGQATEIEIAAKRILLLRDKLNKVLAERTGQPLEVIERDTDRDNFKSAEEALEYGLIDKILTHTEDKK
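ClpP 10 microg/mL final, pH 8 Tris/KCl buffer with BSA, glycerol, Tween-20; compound pinned in; FRET-FV substrate; RT 20 min; Ex320/Em430; ΔFRET vs ADEP 5.8 microM, DMSO, no enzyme.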
PINK1 modulator: A Quantitative High throughput Screen to Identify Chemical Modulators of PINK1 Expression. PINK1 immunofluorescence, high-content cytometry, 24 h. Potency, µM (top dose mostly 76.6 µM), inactives show at the top dose activation (PINK1 increase), most hits filed as activators. 410,000 tested, 0.2% active; active = well fitted activation curve with a large enough effect; inconclusive = small, poorly fitted or top-dose-only effect; inactive = flat fitted curve, though single readings scatter; cell line not stated here;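 note: potency is the fitted concentration of half-maximal effect; % of control where 0% means no effect; nearly all actives have a fitted effect of over 65% in size; a mitochondrial uncoupler was the plate control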
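Cells are seeded, rested 12 hours, then given compound at five concentrations or DMSO for 24 hours. After fixation, blocking and antibody staining, PINK1 amount and mitochondrial localization are scored; CCCP serves as control.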
TRPML1 agonist: qHTS for Agonists of the Human Mucolipin Transient Receptor Potential 1 (TRPML1). 410,000 tested, 0.12% active. AID 624414, 2012. TRPML1-expressing cells, Ca2+ dye fluorescence, FDSS; host cell line not named in the record; reference of the full effect not given here. Mucolipin-1 (Homo sapiens), Q9GZU1. activation, % (test concentration not listed); in the data active = activation above about 50%; inconclusive = about 30% to 50%; inactive = below about 30%; note: 0% is about no effect; the text of the record puts the active cut at 80%
Target sequence (Q9GZU1 whole entry, looked up): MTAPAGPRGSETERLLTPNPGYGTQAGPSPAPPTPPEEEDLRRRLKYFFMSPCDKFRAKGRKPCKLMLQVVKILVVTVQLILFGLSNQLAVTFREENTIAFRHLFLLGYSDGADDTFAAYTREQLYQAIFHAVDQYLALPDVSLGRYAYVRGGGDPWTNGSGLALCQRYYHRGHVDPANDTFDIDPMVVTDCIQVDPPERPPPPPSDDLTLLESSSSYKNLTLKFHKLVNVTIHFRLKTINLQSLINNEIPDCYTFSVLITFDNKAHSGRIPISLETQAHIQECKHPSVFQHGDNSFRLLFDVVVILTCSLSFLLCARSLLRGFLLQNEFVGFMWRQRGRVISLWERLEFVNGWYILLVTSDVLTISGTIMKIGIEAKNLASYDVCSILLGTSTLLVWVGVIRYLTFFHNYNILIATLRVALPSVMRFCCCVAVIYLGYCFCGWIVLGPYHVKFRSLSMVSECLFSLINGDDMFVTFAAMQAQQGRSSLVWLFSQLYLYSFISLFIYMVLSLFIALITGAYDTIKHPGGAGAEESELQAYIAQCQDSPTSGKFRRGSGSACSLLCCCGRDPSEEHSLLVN
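Kinetic FDSS Ca2+ read in Tet-induced TRPML1-DL cells (ABD Ca8 dye plus quencher, 45-90 min RT loading): baseline, then compound, then 110 s agonist window; EC80 agonist 54-4 at 4uM final added afterwards for a 110 s antagonist window.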
Menin MLL FP FL: qHTS Assay for Inhibitors Targeting the Menin-MLL Interaction in MLL Related Leukemias: Competition With Fluorescein Labeled MLL-derived Peptide | FP activity change, % at 61.4 µM | Fluorescence polarization, fluorescein-MLL peptide displacement from menin | AID 1766, 2009 | 290,000 tested, under 10 active; inconclusive = falling polarisation curve, or a change in total fluorescence; inactive = total fluorescence flat and polarisation flat or rising; no compound was filed as active; the % refers to the polarisation; negative = inhibition;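 note: % of control where 0% means no effect; inhibitors lower the polarisation; unlabelled MLL peptide was the positive control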
TRPML1 inh: qHTS for Inhibitors of the Human Mucolipin Transient Receptor Potential 1 (TRPML1). Mucolipin-1 (Homo sapiens), Q9GZU1. TRPML1-inducible cells, Ca2+ dye fluorescence, FDSS; stronger effect = lower value; inhibition of EC80 agonist-evoked calcium signal. activity change, negative = inhibition, % (test concentration not listed). 390,000 tested, 0.02% active; in the data active means activity change below about -50%; inconclusive means about -30% to -50%; inactive means above about -30%;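 note: stimulus is agonist 54-4 at its EC80 concentration; % is set by controls: 0 for no effect and ±100 for the full control effect; compound concentration not given in the record; the text of the record puts the active cut at -80%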
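Calcium fluorescence in TRPML1-DL cells induced overnight with Tet: a 110 s read after compound pin addition, then a 110 s antagonist read after challenge with 54-4 at 4 uM final (EC80).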
TRPV1 potentiator: HTS Assay for Compounds that Act as Potentiators of the Vanilloid Receptor 1; Transient receptor potential cation channel subfamily V member 1 (Homo sapiens), Q8NER1; TRPV1-expressing cells, Fluo-8 calcium influx, capsaicin EC20 potentiation; host cell line not named in the record; control for the full effect not named in the record; potentiation, % at 8.33 µM; 320,000 tested, 0.02% active; active means potentiation above 80%; inconclusive means 30% to 80%; inactive means below 30%; note: 0% is about no effect
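Fluo-8 calcium influx in TRPV1-expressing cells, kinetic read (ex 480/em 520 nm). Compound added and read 3 min for agonist activity, followed by capsaicin at EC20 final and 2 min further read for enhancement.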
The depositor's hits bear a star; ? = inconclusive; . = no result given; [ ] = dose if it differs, or a comment.

SMILES	Sfp PPTase inh	ClpP mod	PINK1 modulator	TRPML1 agonist	Menin MLL FP FL	TRPML1 inh	TRPV1 potentiator
CCC(=O)N1c2ccccc2CC1C(=O)NCCc1ccc(C)cc1 (stereo not given)	.	0.1%	0.0%	-0.1	.	-15	.
O=C(Nc1ccc(Cl)cc1C(=O)Nc1ccncc1)c1ccco1	?	-16%	1.1%[38.3 µM]	4.3	7.7	-2	-8
Cc1c(OCC(=O)NCCN2CCOCC2)ccc2c1oc(=O)c1ccccc12	15%	3.9%	-0.9%	-1.2	-1.7	-11	-1
COc1cccc(NC(=O)c2nnn(CC(=O)Nc3cc(C)cc(C)c3)c2N)c1	-3%	-23%	5.7%	0.7	-1.3	21	-4
N#C/C(=C\c1ccccc1)c1nc(-c2cc3c(ccc4ccccc43)oc2=O)cs1	.	-3.4%	0.3%	1.5	.	-26	.
OC(COc1ccc2ccccc2c1)Cn1ccnc1 (stereo not given)	12%	-2.3%	.	0.2	2.7	-20	-19
COCCn1ccc(O)c(Cc2ccc(Cl)cc2)c1=O	16%	0.4%	4.6%	-0.7	1.9	-6	-1
CC(=O)OC1C(OC(C)=O)N(C(C)=O)C(=O)N1C(C)=O (stereo not given)	6%	-1.0%	1.8%	-0.3	1.4	1	-10
COc1cccc(-c2ccc3c(c2)N(Cc2ccccc2OC)C(=O)C(C)S3)c1 (stereo not given)	.	0.0%	-0.2%	0.1	.	.	.
CCN(CC)CCN(CC(=O)N(C1CCCCC1)C1CCCCC1)C(=O)c1ccco1	-23%	.	-1.0%	1.7	-7.3	32	5
N#Cc1ccccc1OCC(=O)N(C1CCCCC1)C1CCS(=O)(=O)C1 (stereo not given)	.	-2.4%	1.2%	0.3	.	-7	7
CCOc1ccc2oc(=O)cc(CN3CCN(C(=O)c4ccc(Cl)cc4)CC3)c2c1	.	-26%	-0.4%	0.7	.	28	.
CC(Sc1nc2c([nH]c3ccccc32)c(=O)n1C)c1ccccc1 (stereo not given)	22%	-2.9%	6.8%	-0.3	1.8	4	-1
Nc1nc2ccc(-c3nc4ccccc4o3)cc2s1	2%	-22%	-1.3%	2.1	0.7	-14	-37
CSc1ccc(S(=O)(=O)N2CCC(C(=O)NC3CC3)CC2)cc1	10%	.	2.2%	-0.3	3.0	-7	-2
CCCSc1nnc2c(n1)OC(c1cccn1C)N(C(C)=O)c1ccccc1-2 (stereo not given)	27%	0.0%	-1.8%	-0.4	1.2	41	5
OCCN(CCO)Cc1ccc(Br)cc1	-1%	0.8%	-1.1%	-0.5	2.8	5	-10
COc1ccc(CCNC(=O)c2ccc(Cn3c(=O)c4ccccc4n(Cc4cccc(Cl)c4)c3=O)cc2)cc1OC	.	?	1.3%	0.6	.	23	.
Cc1cc(C)n2c(=S)[nH]nc2n1	2.8µM*	-0.9%	-1.0%	1.9	4.6	-16	-6
CCCC1NC(=S)NC(C)=C1C(C)=O (stereo not given)	-11%	?	-2.5%	0.4	-0.3	-15	-4
CCOc1cc(NS(=O)(=O)CC)c(OCC)cc1NC(=O)c1ccco1	-28%	-3.6%	-0.9%[38.3 µM]	0.8	0.9	0	1
C/C(=N\Nc1cc(C)nc(-c2ccccc2O)n1)c1ccccc1O	9%	-3.5%	-1.5%	.	5.5	.	.
Cc1nc(N2CCC(C)CC2)c2c(C)c(C(=O)Nc3cc(F)ccc3C)sc2n1	-25%	.	-1.3%	1.3	0.0	34	-5
Cc1c(C(=O)N2CCC(C)CC2)c(S(=O)(=O)Nc2cccc(C#N)c2)c(C)n1C	.	0.9%	0.6%	0.3	.	?	.
O=C(NC1(C(F)(F)F)C(=O)Nc2c1c(=O)[nH]c(=O)n2-c1ccc(F)cc1)c1cccnc1 (stereo not given)	-13%	0.3%	.	-0.5	0.7	4	-12
SMILES	Sfp PPTase inh	ClpP mod	PINK1 modulator	TRPML1 agonist	Menin MLL FP FL	TRPML1 inh	TRPV1 potentiator
COc1ccc(NC(=O)c2cc3ccccc3cc2O)cc1	-26%	-2.9%	?	2.3	-4.9	-4	-9
CC1CCCC(C)N1C(=O)Cn1cc(C#N)c2ccccc21 (stereo not given)	3%	.	0.4%	-0.9	-0.1	29	-1
CC(C)(C)OC(=O)N/N=C/c1ccc(Br)cc1	1%	.	-0.1%	1.8	-3.5	-10	-16
COc1ccc(/C=C2\Sc3ccc(C(=O)NCCCN4CCCC4)cc3N(C)C2=O)cc1OC	-12%	-2.9%	6.0%	1.2	-5.9	7	24
Cc1ccc(Cc2nc(-c3ccccn3)no2)cc1	1%	-0.1%	0.4%	-0.7	7.7	-2	-6
COc1ccc(-c2cc(=O)oc3c(C)c(OC(C)C(C)=O)ccc23)cc1 (stereo not given)	-13%	-25%	0.5%	2.8	1.8	67	-12
CC(C)C[C@@H](CN)NC(=O)c1nc[nH]c1C(=O)N[C@@H](C)C(=O)CNC[C@H](C)NC(=O)c1nc[nH]c1C(=O)N[C@@H](C)C(=O)O	.	0.4%	3.4%	-0.9	.	20	.
C/C=C/c1ccc(OCCCNC(C)CC)c(OC)c1 (stereo not given)	56µM*	-1.3%	-1.9%	-0.5	-2.2	17	-2
Cc1cc(N(C)N)nc(NC(=O)NS(=O)(=O)c2ccccc2Cl)n1	9%	.	-0.4%	-0.4	-2.6	-6	-1
CCN(CC(=O)Nc1c(F)cccc1F)C(=O)c1cccc(S(=O)(=O)N2CCCc3ccccc32)c1	.	-3.1%	-0.9%	-0.2	.	-5	.
CC(=O)c1sc(NC(=O)COc2ccc(C)c(C)c2)nc1C	12%	-3.5%	25%	0.4	-0.1	7	1
Cc1ccc(CNC(=O)C2CCCN(c3nc4ccccc4n4cccc34)C2)cc1 (stereo not given)	.	22µM*	1.5%	3.1	.	-13	.
Cc1ccc(COc2ccsc2-c2n[nH]c(=S)n2C)cc1	-30%	-1.0%	.	0.4	1.9	11	-10
Cc1ccccc1NS(=O)(=O)c1ccc(C(=O)NCC(c2ccco2)N(C)C)cc1 (stereo not given)	.	-2.6%	-1.5%	1.7	.	-3	-19
Cc1ccc(S(=O)(=O)N[C@H](C(=O)OCC(=O)NC(=O)Nc2ccc3c(c2)OCCO3)C(C)C)cc1	-6%	-3.0%	0.0%	1.3	6.1	26	-10
COc1cc2c(cc1OC)C(c1ccc3c(c1)OCO3)CC(=O)N2 (stereo not given)	17%	-3.1%	?	0.0	7.6	-1	10
CC(C)NC(=O)CSc1cn(CC(=O)N2CCCCCC2)c2ccccc12	.	-4.7%	1.6%	1.3	.	3	.
Nn1cnnc1SCC(=O)Nc1ccc(C2CCCCC2)cc1	10%	0.7%	.	-0.5	3.8	9	-13
Cc1cc2c(C)ccc(C)c2nc1SCC(=O)c1cccs1	-2%	-0.3%	.	4.9	?	5	4
CCOc1cc(C2C(C#N)=C(N)Oc3n[nH]c(-c4ccccc4)c32)ccc1O (stereo not given)	4%	-1.6%	0.1%	0.2	22	-4	-7
N#CC1(NC(=O)CSc2nnc(C3CC3)n2N)CCCCC1	.	-0.1%	1.3%	-0.5	.	-2	.
CCOc1ccc(N(CC(=O)N2CCCCCC2)S(=O)(=O)c2ccc(C)cc2)cc1	2%	-0.5%	-1.1%	2.1	.	13	-14
CSCC[C@H](NC(=O)OCc1ccccc1)C(=O)O	6%	0.7%	5.6%[38.3 µM]	-0.6	2.8	-6	15
CCOc1ccc(C(=O)N/N=C/c2ccc(SC)cc2)cc1	30%	-4.1%	5.5%	-0.3	3.8	-10	-5
CSCCC1NC(=O)N(CC(=O)Nc2cc(C)on2)C1=O (stereo not given)	.	-0.9%	-0.9%	0.4	.	-4	-2
SMILES	Sfp PPTase inh	ClpP mod	PINK1 modulator	TRPML1 agonist	Menin MLL FP FL	TRPML1 inh	TRPV1 potentiator
COCCn1nnnc1C(C(C)C)N1CCOCC1 (stereo not given)	-8%	-0.1%	.	0.6	0.7	5	0
COCCC(=O)N1CCC(Oc2ccc(C(=O)N(C)C(C)c3ccon3)cc2)CC1 (stereo not given)	4%	-1.5%	0.4%	0.3	.	16	-38
COc1ccc(Br)cc1CC1C(=O)Nc2ccccc21 (stereo not given)	.	-0.7%	-0.3%	1.9	.	6	.
COCCCn1cnnc1SCc1nc2sc(C(C)=O)c(C)c2c(=O)[nH]1	9%	3.0%	0.0%	2.1	?	-7	18
N#CC1(NC(=O)COC(=O)C2CCN(S(=O)(=O)c3ccc4c(c3)OCCO4)CC2)CCCCC1	.	-0.5%	0.4%	2.3	.	9	.
COc1ccc(C(=O)OC2CCN(C)CC2)cc1	-6%	-3.0%	-0.6%	-0.6	-0.7	2	5
Cn1cc(/C=C/C(=O)N2CCCC(C(=O)c3ccc(C(C)(C)C)cc3)C2)cn1 (stereo not given)	2%	0.8%	0.3%	0.1	-4.4	-16	-18
O=C(CSc1nnc(-c2cccnc2)n1-c1ccc(SC(F)F)cc1)N1CCCc2ccccc21	-10%	-2.3%	0.6%	2.1	0.5	-6	2
CC(C(=O)Nc1ccc(S(=O)(=O)N2CCOCC2)cc1)N(c1ccccc1)S(C)(=O)=O (stereo not given)	7%	0.3%	0.4%	-0.9	2.0	-3	-1

In the list so far, these contain a furan ring, fused or not.
SMILES	Sfp PPTase inh	ClpP mod	PINK1 modulator	TRPML1 agonist	Menin MLL FP FL	TRPML1 inh	TRPV1 potentiator
O=C(Nc1ccc(Cl)cc1C(=O)Nc1ccncc1)c1ccco1	?	-16%	1.1%[38.3 µM]	4.3	7.7	-2	-8
CCN(CC)CCN(CC(=O)N(C1CCCCC1)C1CCCCC1)C(=O)c1ccco1	-23%	.	-1.0%	1.7	-7.3	32	5
CCOc1cc(NS(=O)(=O)CC)c(OCC)cc1NC(=O)c1ccco1	-28%	-3.6%	-0.9%[38.3 µM]	0.8	0.9	0	1
Cc1ccccc1NS(=O)(=O)c1ccc(C(=O)NCC(c2ccco2)N(C)C)cc1 (stereo not given)	.	-2.6%	-1.5%	1.7	.	-3	-19
